Calb biofilm kill – clotrimazole potentiators killing C. albicans biofilm, primary screen, 4-compound mixtures. C. albicans biofilm persisters + clotrimazole, fluorescence viability; primary screen in compound mixtures of four per well. inhibition, % at 7.6 µM. 120,000 compounds, 0.02% hits;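 active = inhibition above 30.3% in the primary screen of four-compound pools, then above 30% when the compound was retested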;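 also: compounds exposed to preformed 24 h biofilms for 48 h; the number belongs to the whole pool; some results filed as inactive read as strong as hits; inactives centre near 12; 0% = biofilm with clotrimazole alone and 100% = kill control; retested singly at about 60 µM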
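Test system: C. albicans CAF4-2 wild-type biofilms; buffer or medium: RPMI/MOPS medium, pH 7.0; schedule: 24 h biofilm formation, then 48 h compound exposure, 37 °C; detection: Alamar Blue fluorescence; measure: percent inhibition of biofilm viability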
Active calls of the source: *.

molecule,Calb biofilm kill
Cc1cc(C)nc(N/N=C/c2ccccc2OCc2ccc(Cl)cc2)n1,0
CCOC1=C/C(=C/c2c(N)n3nc(S(=O)(=O)CC)sc3nc2=O)C=CC1=O,9
COc1ccccc1N1C(=O)CC1(C#N)c1ccc(OCc2ccccc2)cc1 (stereo unspecified),15
COc1ccc(N(CC(=O)N2CCN(c3cccc(C)c3)C(C)C2)S(=O)(=O)c2c(C)n[nH]c2C)cc1 (stereo unspecified),17
O=C(CCSCc1ccccc1F)NCc1cccnc1,11
COC(=O)Nc1ccc(S(=O)(=O)NCc2ccccn2)cc1,19
CCOC(=O)C1(CC2CCCCO2)CCN(Cc2nc3ccccc3nc2C)CC1 (stereo unspecified),7
S=C1CCC(c2ccc(Cl)cc2)=NN1c1ccccc1,23
CC(=O)Nc1ccc(Nc2nc3ccccc3nc2NS(=O)(=O)c2ccccc2)cc1,26
CCCOc1ccc(CCC(=O)N/N=C/c2ccco2)cc1,14
C[C@H](NC(=O)c1nc[nH]c1C(=O)NC(c1ccccc1)c1ccccc1)C(=O)OCc1ccccc1,14
O=C(COC(=O)c1cccc(S(=O)(=O)N2CCc3ccccc32)c1)Nc1ncc(C(F)(F)F)cc1Cl,12
COc1ccc(CNc2c(CO)cnc3c2cnn3C)cc1,-8
CC(C)Oc1ccc(/C=C(/NC(=O)c2ccccc2)C(=O)NCCC(=O)O)cc1,16
Cc1ccc(C(=O)Nc2ccc(S(=O)(=O)N3CCOCC3)cc2)cc1,7
CCc1cccc(N(C(=O)c2csnn2)C(C(=O)NC(C)(C)C)c2ccncc2)c1 (stereo unspecified),11
Cc1nn(-c2ccccc2)c(N2CCCC2)c1/C=C1\N=C(c2ccc(F)cc2)OC1=O,9
Cc1ccc(CNC(=O)COC(=O)CCC(=O)c2cccs2)cc1,7
O=C1c2ccccc2N(Cc2ccc(Cl)cc2)C2=NCCN12,7
CCN(CC)C(=O)c1cccc2c1C(=O)c1ccccc1-2,12
COc1ccc([C@@H]2C=C(C(=O)O)O[C@H](OCCCCO)C2)cc1,10
O=C(Nc1nccs1)c1c(O)c2c([nH]c1=O)CCCC2,0
CC(C)(C)C(=O)Cn1ncc(N2CCOCC2)c(Br)c1=O,10
CCCC(C)C(=O)NCc1ccncc1 (stereo unspecified),17
O=c1[nH]c(CN2CCN(S(=O)(=O)c3cccs3)CC2)nc2c(Br)cc(Br)cc12,-4
COc1ccc(-n2cnc3cc(C(=O)NCCN4CCOCC4)ccc32)cc1,14
Cc1nn(-c2cc(N3CCCCC3)ccc2[N+](=O)[O-])c(=O)c2ccccc12,11
COc1cc(CC(=O)OCC(=O)Nc2sccc2C(N)=O)cc(OC)c1OC,11
Cc1cccc(/C=N/n2c(-c3ccncc3)n[nH]c2=S)c1,14
O=C(NCc1ccccc1)c1ccccc1CO,11
O=C(CC(c1ccccc1)c1ccccc1)NCc1cccnc1,13
COc1cccc(/C=N/NC(=O)c2[nH]nc3c2CCc2ccccc2-3)c1,13
NC(=O)[C@@H]1CCOc2c(I)cc([N+](=O)[O-])cc2C(=O)N[C@@H](CO)C(=O)NCC(=O)N1,9
CCOC(=O)c1sc(NNC(=O)c2ccc(F)cc2)nc1C,10
C/C(=N\Nc1cc(N2CCOCC2)ncn1)c1cccc([N+](=O)[O-])c1,10
CCCOc1ccc(C(=O)Nc2ccc(S(=O)(=O)Nc3onc(C)c3C)cc2)cc1,14
CCc1ccc2[nH]c(=O)c(CN(CCN(CC)CC)C(=S)NCc3ccco3)cc2c1,33
COCCN(CCOC)S(=O)(=O)c1ccc(C(=O)Nc2nnc(CSC)o2)cc1,8
Cc1ccc(NCCC(=O)c2cccs2)cc1,21
CCCCN(CC)Cc1ccc(CNC(=S)Nc2ccc(C)cc2Cl)o1,12
Cc1cc(-c2nc(C)c(C(=O)NN)s2)no1,21
CN(CC(=O)Nc1cccc(F)c1)CC(=O)Nc1ccccc1[N+](=O)[O-],14
N#CCOC(=O)C1CSC2(c3ccc(Br)cc3)CCC(=O)N12 (stereo unspecified),12
CC(C)CC(NC(=O)OC(C)(C)C)C(=O)O (stereo unspecified),26
O=C(CC(=O)N/N=C\c1ccc([N+](=O)[O-])cc1)NCCc1ccccc1,18
C/C=C/C(=O)Nc1nnc(C2CCCCC2)s1,2
COc1ccc(OC(=O)c2cnc3n(c2=O)CCS3)cc1,19
Cc1ccc(SCC(=O)NC(=O)c2ccc(S(=O)(=O)N(C)C)cc2)cc1C,3
Cc1ccnc(NS(=O)(=O)c2ccc(NC(=O)c3ccc4c(c3)OCCO4)cc2)n1,19
C=CCn1c(O)c(C=Nc2ccc(CN3CCCCC3)cc2)c(=O)[nH]c1=S,11
Nc1ccc(C(=O)OCc2csc(-c3ccccc3)n2)cc1[N+](=O)[O-],16
Cc1nc(NC(=O)c2cccc(Cl)c2)sc1C(=O)N1CCCCC1,17
Cc1c(C(=O)O)cccc1N1C(=O)Nc2ccccc2N1O,8
CC(=O)Nc1ccc(Nc2nc3c(S(=O)(=O)c4ccc(C)c(C)c4)nnn3c3ccccc23)cc1,16
O=C(Nc1ccc2cn[nH]c2c1)c1c(Cl)cccc1Cl,23
COC(=O)c1ccc(NC(=O)Cn2cnc3c(nnn3-c3cccc(OC)c3)c2=O)cc1,18
O=C1COc2ccc(C(=O)NC3CC3)cc2N1,-15
COc1cccc2cc(C(=O)NCc3ccco3)c(=O)oc12,8
COc1ccc(C(=O)NCC(=O)N/N=C/c2ccc([N+](=O)[O-])s2)cc1OC,21
C#CCOc1ccc(/C=N/O)cc1Cl,2

(further entries)
molecule,Calb biofilm kill
CCCCCC(=O)NC(=S)Nc1ccc(Br)cc1C,2
C#CCOCCOCCOCCNc1nc(N2CCOCC2)nc(N2CCN(C(=O)[C@H]([C@@H](C)CC)n3cc(CCCN=C(N)N)nn3)CC2)n1,11
O=C(CN1CCCCC1)Nc1ccc(C(F)(F)F)cc1Cl,9
N#C/C(=C\c1cn(CCOc2ccccc2F)c2ccccc12)C(=O)NCc1cccs1,17
O=C1CCC(=O)N1OCCOc1ccc(Cl)c2ccccc12,18
CCCN(CCC)CC(=O)NCC1(c2ccccc2)CCOCC1,11
O=C(COC(=O)c1n[nH]c2ccccc12)Nc1ccccc1,10
CSCCC(NC(=O)COc1ccccc1)C(=O)Nc1ccc(C)cc1 (stereo unspecified),12
CC(=O)Nc1ccc(N2CCN(c3ccc(C(F)(F)F)cn3)CC2)nc1,28
Nc1n[nH]c(C2CC2)c1N=Nc1ccc(Cl)c(Cl)c1,12
O=C(NCc1ccc(Cl)cc1)C1CCC(CNc2c(N3CCCC3)c(=O)c2=O)CC1 (stereo unspecified),3
O=C(NCCCN1CCCC1=O)[C@H](CSCc1ccccc1)N1Cc2ccccc2C1=O,21
COc1ccc2oc(=O)c(/C(C)=N/Nc3nc(-c4cc(C)ccc4C)cs3)cc2c1,11
CC(CNC(=O)C(C)(C)C)NC(=O)C(C)(C)C (stereo unspecified),13
Cc1ccc(S(=O)(=O)N(C)C)cc1[N+](=O)[O-],8
CCN1CCN(C(=O)N2CCOCC2)CC1,11
COc1ccc(/C(C)=N/NC(=O)CNC(=O)/C=C\c2ccco2)cc1,7
COc1ccc(-c2cc(C(F)(F)F)n3ncc(C(=O)N4CCc5ccccc5C4)c3n2)cc1,2
CCC(=O)NC(=S)Nc1cc(C(=O)O)ccc1OC,18
O=C(COc1ccccc1O)NNc1ccccc1,20
CC1C(C#N)=C(N)OC2=C1C(=O)CC(c1ccccc1)C2 (stereo unspecified),-6
Cc1cccc(NC(=O)c2sc(NC(=O)COc3ccccc3)c(C#N)c2C)c1C,9
Cn1c(=O)n(C)c2cc(/C=N/NC(=O)c3ccncc3)ccc21,20
CCOC(=O)C1(Cc2cccc(OC)c2)CCN(Cc2cnc(N)nc2)CC1,1
CC(C)(CN1CCc2ccccc2C1)NS(=O)(=O)c1ccccc1,18
O=C(CN(CCc1ccccc1)S(=O)(=O)c1ccc(Cl)cc1)N/N=C/c1ccc2c(c1)OCO2,6
COc1ccc(CNC(=O)COC(=O)CCCOc2ccc(Cl)cc2Cl)cc1,4
CSc1ncc(CN2CCc3c([nH]c4ccccc34)C2c2cccc(C)n2)cn1 (stereo unspecified),28
COc1ccc2c(c1)NC(c1ccc(N(C)C)cc1)c1cccn1-2 (stereo unspecified),6
Cc1ccc(C(=O)N/N=C/c2cccc(OC(=O)/C=C/c3ccco3)c2)cn1,11
COc1ccc(OCC(=O)Nc2ccc(N3CCC(C)CC3)cc2)cc1,9
NS(=O)(=O)c1ccc(CNS(=O)(=O)c2ccc(Cl)nc2)cc1,12
CCOC(=O)c1cccc(N2C(=O)Nc3ccccc3N2O)c1,13
Cc1cc(/C=C2/C(=N)N3C(=NC2=O)SN=C3S(C)(=O)=O)c(C)n1-c1ccccc1,44
Cc1nc(-c2nc(-c3c(C(=O)NNC(=O)Nc4cccc(Cl)c4)noc3C)cs2)cs1,21
CCn1cc(CN2CCN(Cc3ccsc3)C(CCO)C2)cn1 (stereo unspecified),17
C=CCn1c(O)c(N=NC(=S)Nc2cccc(C)c2)c2ccccc21,19
COc1cc(/C=C/C(=O)OCC(=O)NC(=O)NC(C)(C)C)cc(OC)c1OC,10
CN(CC(=O)OCC(=O)c1c(N)n(C)c(=O)n(C)c1=O)S(=O)(=O)c1ccc(Cl)cc1,12
CCC(c1nnnn1C1CCCC1)N1CCN(Cc2ccccc2)CC1 (stereo unspecified),12
[O-]/[N+](=C\C=C\c1ccccc1)c1ccccc1,11
Cc1ccc(C)c(C(=O)COc2ncnc3ccccc23)c1,11
CC1=Nc2cc(C(=O)NCCCOC(C)C)ccc2Sc2ccc(C)cc21,17
CC1(OC(=O)C2CCCC2)C(=O)C=C2C=C(c3ccsc3)N(CCc3ccccn3)C=C2C1=O (stereo unspecified),20
O=C(NC(=S)NCC1CCCO1)c1cccs1 (stereo unspecified),18
CN(C(=O)Cn1cccc1C1=NC(c2ccccc2)CO1)c1ccccc1 (stereo unspecified),12
Cn1c(N)c(C(=O)COC(=O)CCOc2ccc(C(C)(C)C)cc2)c(=O)n(C)c1=O,-5
O=C(/C=C/c1ccccc1)Nc1ccc2c(c1)OCCO2,9
COc1ccc(CC(=O)NNc2ncnc3c2cnn3-c2ccc(C)cc2)cc1OC,10
CC(C)(C)Sc1ccc([N+](=O)[O-])cc1C(=O)Nc1ccncc1,20
O=C(c1ccccc1F)N1CCCC(C(=O)N2CCc3ccccc3C2)C1 (stereo unspecified),27
O=C(Cn1nnc(-c2ccc(OCc3ccccc3F)cc2)n1)N1CCOCC1,17
Cc1onc(-c2ccc(Cl)cc2)c1-c1ccnn1S(=O)(=O)c1cccc(C(F)(F)F)c1,14
S=C(NNc1ccnc2cc(Cl)ccc12)Nc1ccc(Cl)cc1Cl,13
Cc1nn(CC(=O)O)c(C)c1[N+](=O)[O-],26
CCSc1nnc(NC(=O)CSc2nnc(CNC(=O)c3ccc(OC)cc3)o2)s1,16
CC1(C)CC(=O)C2=C(C1)Nc1cc(C(=O)c3ccccc3)ccc1NC2c1ccccn1 (stereo unspecified),3
Cc1ccc(-c2csc3nc(CSc4nnc(-c5ccc(Cl)cc5)n4C)[nH]c(=O)c23)cc1,17
Cc1nn(C)c(C(=O)Nc2ccc(Cl)c([N+](=O)[O-])c2)c1Cl,1
CCN(CC)c1ccc(CNc2nc3ccccc3n2CCN2CCCCC2)cc1,-6
O=C(O)/C=C/c1cn(-c2ccccc2)nc1-c1ccc(-c2ccc([N+](=O)[O-])cc2)o1,21
S=c1nc[nH]c2c1cnn2-c1ccccc1,29
CCOC(=O)c1c(-c2ccc(OC)cc2)csc1NC(=O)CCN1CCOCC1,8

Compound activity from PubChem.

A portion of the library. The share of hits here may be higher or lower than overall.
